Source: PubChem BioAssay
BasE inh = blocks the Acinetobacter baumannii siderophore enzyme BasE | purified BasE, fluorescence polarization binding displacement | inhibition, % (no concentration beside the values) | 84,000 tested, 0.1% active | AID 485350;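 active means both replicates above 25% with normal brightness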;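 further: 0% = negative plate control signal and 100% = positive plate control signal; stock transfer was 100 nL into about 30 µL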
LANA-nucl inh = LANA-nucleosome interaction inhibition. AID 720717. 51,000 tested, 0.3% active. z-score (no concentration beside the values). FITC-LANA1-23 / chicken nucleosome fluorescence polarization; stronger effect = lower value;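 active means both repeat wells score below -2 in polarization z-score versus plate sample wells, excluding overly bright wells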;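 further: 100 nL library stock added to about 30 µL; numbers are from one replicate; some results filed as inactive read as strong as hits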
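Material: Purified chicken nucleosomes with FITC-labelled LANA N-terminal peptide (1-23) | Reagent: 50 nM FITC-LANA1-23 probe | Medium: TEN-BT buffer, pH 7.5 | Times: 10–45 min incubation at room temperature | Detection: Fluorescence polarization | Replication: Duplicates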
* marks the source's active call; other numbers are inactive results; . = not tested or not shown; & = joins results of further samples. A portion of the library. The share of hits here may be higher or lower than overall.

compound,BasE inh,LANA-nucl inh
COc1ccc(Cl)c(N2CC(c3nc4ccccc4n3C(C)C)CC2=O)c1 (stereo not given),-1.0,.
COc1ccc(C[C@H](N)C(=O)N[C@@H]2[C@@H](CO)OC(n3cnc4c(N(C)C)ncnc43)[C@@H]2O)cc1 (stereo not given in full),2.8,-0.25&-0.4
CC1=C(C#N)C(C)(C)C(C#N)=C(C)N1,1.1,-0.15
CC(C)(C)N1C(=O)c2ccc(-c3nc4ccccc4o3)cc2C1=O,-2.7,0.62
O=c1oc2cc(O)ccc2c2c1CCC2,3.6,-1.1
CN(C)c1ccc(C2(C)Oc3ccccc3C(=O)N2c2ccccc2)cc1 (stereo not given),0.8,.
O=C(CCn1c(=O)oc2ccccc21)N1CCN(Cc2ccc3c(c2)OCO3)CC1,-2.6,.
CCCn1c(C)cc(C(=O)CSc2nnc(-c3cccc(S(=O)(=O)N(CC)CC)c3)o2)c1C,0.7,.
CC(CC(=O)Nc1cccc(Cl)c1)N1CCCC1 (stereo not given),.,-0.8
O=C(Nc1nc(CN2CCCCC2)cs1)c1ccc(-n2cccn2)cc1,-15,.
CCCCNC(=O)Cn1c(-c2ccc(OC)cc2)noc1=O,-2.7,0.14
CSc1ccc(/C=C2/NC(=O)NC2=O)cc1,0.9,0.39
CCc1cc(=O)[nH]c(SC)n1,-1.7,-0.004
Cc1nc2ccc(C(=O)N3CCN(Cc4ccccc4)CC3)cc2[nH]1,-0.8,-0.23
Sc1nc2c(Cl)c(Cl)c(Cl)cc2o1,8.9,-0.11
O=C(OCc1cccc(Cl)c1)c1ccccc1O,3.6,.
CN(C)CCCn1c(=N)n(CC(O)C(C)(C)C)c2ccccc21 (stereo not given),0.4,.
CCOC(=O)c1cnc(Nc2nc3ccccc3o2)nc1CSC(=S)N1CCCCC1,0.0,0.68
CCN(CC)S(=O)(=O)c1cccc(C(=O)Nc2ccc(I)cc2)c1,-0.2,.
CC1CCCCC1NC(=O)COC(=O)c1ccc(N(C)C)cc1 (stereo not given),1.6,.
CC1(C)CN=C(NCCNC2=NCC(C)(C)S2)S1,-0.1,-2
Cc1ccc(CNCC(C)O)s1 (stereo not given),0.0,-0.77
OC(c1ccccc1)C(F)(F)C1(F)OC(F)(F)C(F)(F)C1(F)F (stereo not given),-0.2,-0.52
Cc1cc(C(=O)Cn2cnc3sccc3c2=O)c(C)n1-c1ccc2c(c1)OCO2,2.3,.
COc1ccc(O)c(C(=O)c2cnn(S(=O)(=O)c3ccc(C)cc3)c2)c1,3.7,.
COc1cccc(C(Nc2ccccn2)c2c(C)[nH]c3ccccc23)c1 (stereo not given),2.1,.
Cc1ccc(NC(=O)CCS(=O)(=O)c2cc3[nH]c(=O)c(=O)[nH]c3cc2C)cc1,-1.8,.
COc1ccc2cc([C@@H](C)C(=O)O)ccc2c1,-1.9,-0.33
O=C1C=CC(=CN(O)c2ccccc2)C=C1,1.4,-1.1
N#C/C(C(=O)N1CCCC1)=c1/s/c(=C\c2ccccn2)c(=O)n1-c1ccccc1,3.6,.
Cc1cc(NC(=O)c2cc3ccc4cccnc4c3[nH]2)no1,0.7,.
S=c1nc[nH]c2c1nnn2Cc1ccccc1Cl,-3.3,.
O=C(NCC1OCCc2ccccc21)c1ccc(NC(=O)c2ccco2)cc1 (stereo not given),1.8,.
O=C(O)/C=C/c1coc2ccccc2c1=O,-0.5,0.27
CCCC(CCC)C(=O)Nc1cccc(-c2cn3c(n2)SCC3)c1,-1.2,0.15
CS(=O)(=O)c1scc(-c2cccs2)c1C#N,0.6,.
CCOC(=O)c1c(C)oc2ccc(OC(=O)NC(=O)N(C3CCCCC3)S(C)(=O)=O)cc12,1.4,.
Cn1c2ccccc2c2cnn(CC(=O)N3CCc4ccccc4C3)c(=O)c21,-1.2,-0.13
COc1ccccc1Nc1nn2c(=O)c3ccccc3nc2s1,2.9,-0.76
CCOC(=O)N1CCC(NC2CCCCCC2)CC1,0.6,-0.73
CCN(CC)S(=O)(=O)c1ccc(Cl)c(C(=O)Oc2ccc(C)cc2-n2nc3ccccc3n2)c1,-0.8,.
Cc1noc(C)c1CS,1.2,.
O=C(Nc1cccc(C(F)(F)F)c1)c1ccc2nc[nH]c2c1,-4.4,0.9
COC(=O)C1C(=O)NC(SCc2ccccc2)=C(C#N)C1c1ccccc1 (stereo not given),3.0,.
O=C(CNC1CC2CC=CC21)Nc1ccc(F)c(F)c1 (stereo not given),-1.9,.
O=S(=O)(c1ccc(Nc2ccc(-c3ccccc3)nn2)cc1)N1CCCC1,-1.7,0.071
COC(=O)C1=C(O)/C(=C\c2cccc3ccccc23)N=C1C,2.4,.
CC(C)N1CSC(=S)N(C(C)C)C1,1.4,.

Some values from the entries so far:
`CC(C)N1CSC(=S)N(C(C)C)C1` in BasE inh is entered as 1.4
`O=C(Nc1cccc(C(F)(F)F)c1)c1ccc2nc[nH]c2c1` in LANA-nucl inh is entered as 0.9
`O=C(CNC1CC2CC=CC21)Nc1ccc(F)c(F)c1` (stereo not given) in BasE inh is entered as -1.9
`CCN(CC)S(=O)(=O)c1ccc(Cl)c(C(=O)Oc2ccc(C)cc2-n2nc3ccccc3n2)c1` in BasE inh is entered as -0.8

Next section:
compound,BasE inh,LANA-nucl inh
O=S(=O)(NCCc1ccccc1)c1cccs1,0.6,0.11
O=C(NCC1CCCCC1)c1ccc(Br)o1,0.3,0.45
Clc1cccc(Cl)c1-c1cc(-c2ccccn2)on1,0.1,.
O=C1CC(C(=O)O)C(c2ccccc2)O1 (stereo not given),2.2,0.45
CC(C)CCN(Cc1ccco1)S(=O)(=O)c1ccc(-c2cc(C(F)(F)F)no2)s1,2.4,.
COc1ccc(C(=O)Nc2ccc3c(c2)nc2n3CCN(Cc3ccccc3)C2)cc1,-17,1.4
CCc1c(C)c2ccc(OCC(=O)C(C)(C)C)c(C)c2oc1=O,0.4,-1.1
Cc1cc(/C=N/NC(N)=S)c(C)n1CC(F)(F)F,3.0,.
Cc1nnc(SCC(=O)N2N=C3/C(=C/c4ccco4)CCCC3C2c2ccco2)n1-c1ccccc1 (stereo not given),0.4,.
CCOC(=O)c1nc(N2CCCC(C)C2)c2ccccc2n1 (stereo not given),1.6,-0.015
Clc1cc(Cl)c(NN=C2CCCC2)c(Cl)c1,0.8,.
Cc1nnc(SCc2nc3sc4c(c3c(=O)[nH]2)CCCC4)n(N)c1=O,-0.7,.
COc1ccc(NC(=O)COC(=O)c2ccc(-n3cnnn3)cc2)cc1Cl,1.3,.
COCCNC(=O)c1cc(-c2ccccn2)nc2ccc(S(=O)(=O)N3CCC(C)CC3)cc12,0.8,2.8
CCCCCc1ccc(Nc2cn[nH]c(=O)c2Cl)cc1,-2.0,.
COC(=O)/C(C#N)=C1\NC(C)=NC(SC)=C1C#N,0.6,.
O=C(c1cc(-c2ccccc2)nn1-c1ccccc1)N(C1CC1)C1CCS(=O)(=O)C1 (stereo not given),0.6,.
CCC(C)c1ccc(NC(=O)N(C)C)cc1 (stereo not given),-1.0,-0.2
N#Cc1c(N=CN2CCCCC2)nc2c(c1-c1ccccc1)CCCC2,5.1,.
OC(CNCC1CCCO1)COc1ccc(-c2ccccc2)cc1 (stereo not given),-3.6,-0.83
Cc1ccc(Nc2oc(-c3ccc(C)cc3)nc2C#N)cc1,-1.0,1
Cn1c(CN2CCCCC2)nc2ccccc21,-1.6,-0.25
CCOc1nc2cnccc2n(Cc2ccc(C)cc2)c1=O,-0.3,-1.2
O=C(NC(=S)Nc1ccc(O)c(-c2nc3ccccc3o2)c1)c1ccccc1,2.4,.
COc1ccc(S(=O)(=O)N2CCN(c3cccc(Cl)c3C)CC2)cc1OC,1.4,-0.93
CCCOc1cc(N)ccc1C(=O)OCCN(CC)CC,-0.1,-0.89
Cc1ccccc1C(NC(N)=O)c1ccccc1 (stereo not given),0.4,-0.37
CC(C)=NOC(=O)c1cn(-c2ccccc2)nc1-c1cccs1,-1.0,.
Cc1ccc(NC(=O)Sc2ccc(Cl)cc2)cc1,0.2,.
Oc1ccc(C=NC2CCCCC2)cc1,-0.3,-0.55
CC1CN(C(=O)COC(=O)COc2cc(Cl)c(Cl)cc2Cl)CC(C)O1 (stereo not given),-1.1,.
OC1CSc2nc3ccccc3n21 (stereo not given),3.9,-0.48

Structural class: the compounds so far with a COOH group
compound,BasE inh,LANA-nucl inh
COc1ccc2cc([C@@H](C)C(=O)O)ccc2c1,-1.9,-0.33
O=C(O)/C=C/c1coc2ccccc2c1=O,-0.5,0.27
O=C1CC(C(=O)O)C(c2ccccc2)O1 (stereo not given),2.2,0.45

Further structures follow:
compound,BasE inh,LANA-nucl inh
CCOc1ccccc1NC(=S)N(C1CCCCC1)C(C)c1ccco1 (stereo not given),2.3,-2.1
CCC1(C)NC(=O)NC1=O (stereo not given),3.0,.
O=C1CCN(C(=O)CCCc2nc3ccccc3s2)CC1,0.8,.
c1ccc(-c2csc3ncnc(N4CCCCC4)c23)cc1,2.8,.
O=C(O)c1ccccc1OCc1cn2ccccc2n1,1.9,.
CCCNC(=O)COc1ccccc1OC,0.9,-0.21
COc1ccc(-c2coc3c(C)c4oc(=O)c5cc(OC)ccc5c4cc23)cc1,0.1,.
O=c1[nH]c(O)c(/C=C/N=Nc2ccccc2)c(=O)[nH]1,0.1,-0.0075
O=C(CSc1nnc(CNc2ccccc2)o1)c1ccc2c(c1)OCCO2,-3.7,-0.17
CCCN1C(=O)C2CC(C)=C(C)CC2C1=O (stereo not given),-1.5,2.1
Cc1nc2cccnc2n1-c1ccc(CC(=O)N2CCc3ccccc32)cc1,-0.5,0.03
CCCCn1c(-c2ccccc2)nc(=S)c2c1CCCC2,0.6,.
CN1/C(=C\C(=O)CC(N)=O)C(C)(C)c2ccccc21,-3.8,.
CCCc1cc2ccccc2o1,-1.3,1.4
CSc1ncccc1C(=O)OCC(=O)N(C)C,-1.2,.
CCC(=O)N(C)C1CCS(=O)(=O)C1 (stereo not given),2.3,-1.3
CN(c1ccc(C(=O)NN=C2CCCC2)cc1)S(=O)(=O)c1ccccc1,-15,-0.093
Fc1ccc(-c2cc(C(F)(F)F)nc(NC3CCCC3)n2)cc1,-1.0,-0.32
COCc1cc(=O)[nH]c2cc(NC(=O)C(F)(F)F)c(C)cc12,.,0.028
O=C(COc1ccccc1)NCc1ccccc1,1.0,-0.092
O=C(O)c1ccc2nc3ccsc3c(=O)n2c1,0.7,.
COc1cc(/C=C(\C#N)C(=O)Nc2ccc(S(N)(=O)=O)cc2)ccc1O,-3.7,0.96
CC1CCCCN1C(=S)Nc1ccccc1 (stereo not given),0.5,-0.045
COC(=O)c1ccc(CSc2nnc(COc3ccccc3)o2)o1,-0.2,0.4
C1=C2Nc3ccccc3N=C(c3ccccc3)C2NN1c1ccccc1 (stereo not given),-1.0,.
O=C1CCC(C(=O)OCC(=O)N(C2CCCCC2)C2CCCCC2)=NN1,0.7,.
C=CCn1ccc2c(OCC(=O)c3ccccc3)cccc2c1=O,-4.5,0.23
COc1ccc(S(=O)(=O)N2CCCN(S(=O)(=O)c3ccc(OC)cc3C)CC2)c(C)c1,-1.7,0.13
N#C/C(C(N)=O)=C1/SC=C(c2ccccc2)N1Cc1ccccc1,2.3,.
Cc1ccc(C(=O)c2ccccc2C(=O)O)s1,.,-1.3
Cc1nc2ncnn2c(C)c1CCC(=O)N(C)CC(=O)Nc1ccc(OC(F)(F)F)cc1,1.4,.
CCN1CCC2(CC1)NCCc1c2[nH]c2ccc(OC)cc12,2.2,-0.19
CCOC(=O)C1CCCN(CCC(=O)Nc2ccc(Br)c(C)c2)C1 (stereo not given),-0.8,-0.035
Cc1cc(NC(=O)/C(=C/c2cccs2)c2ccsc2)no1,0.2,.
Cc1sc2ccccc2[n+]1CCCO,-1.0,1.1
CCOC(=O)Cn1c(=NC(=O)C2COc3ccccc3O2)sc2cc(S(N)(=O)=O)ccc21 (stereo not given),-29,0.41
Cc1ccc(Cl)cc1N1CCN(C(=O)c2ccc3noc(-c4ccccc4)c3c2)CC1,-0.4,-0.2
O=c1[nH]c(-c2ccccc2)nc2c1oc1ccccc12,2.1,-1.5
CC(C)CN1C(=O)c2ccc(Br)cc2C1=O,1.0,-0.61
CCOC(=O)C1=C(O)/C(=C/c2ccco2)SC1=Nc1ccc(C)cc1,-3.3,-0.15
CCN(CC)CC(O)COC1CCC(C(C)(C)C)CC1 (stereo not given),-0.1,.
NC(=O)C1CCN(CC2CC3C=CC2C3)CC1 (stereo not given),2.0,1.2
O=C(CN1CCN(CCCc2c[nH]c3ccc(F)cc23)CC1)c1ccc(F)cc1,-2.2,1.5
Cc1cc(C2N=C(N)Nc3nc4ccccc4n32)c(C)n1-c1cc(C(F)(F)F)ccc1N1CCOCC1 (stereo not given),0.7,.
COc1ccc(OCC(O)CNS(=O)(=O)c2cccc(Cl)c2)cc1 (stereo not given),0.5,-0.33
O=c1c2c3c(sc2ncn1/N=C/c1cccnc1)CCCC3,1.6,.

Three entries from above, ordered by the value under LANA-nucl inh, descending:
| canonical_smiles | LANA-nucl inh |
| --- | --- |
| O=C(CN1CCN(CCCc2c[nH]c3ccc(F)cc23)CC1)c1ccc(F)cc1 | 1.5 |
| NC(=O)C1CCN(CC2CC3C=CC2C3)CC1 (stereo not given) | 1.2 |
| COc1ccc(OCC(O)CNS(=O)(=O)c2cccc(Cl)c2)cc1 (stereo not given) | -0.33 |
